PINK1 expr mod – changes PINK1 expression. 410,000 compounds, 0.2% hits. Potency, µM (doses to about 76.6 µM), without a hit: top-dose activation (PINK1 increase), usual class: activators. PINK1 immunofluorescence, high-content cytometry, 24 h; active = well fitted activation curve with a large enough effect; inconclusive = small, poorly fitted or top-dose-only effect; inactive = flat fitted curve, though single readings scatter; cell line not stated here;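 note: % of control where 0% means no effect; nearly all actives have a fitted effect of over 65% in size; a mitochondrial uncoupler was the plate control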
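Stable cell line treated 24 h with compounds at 5 concentrations (CCCP controls), then fixed and immunostained for PINK1 plus nuclear and cell stains; PINK1 immunofluorescence quantified by laser-scanning microplate cytometry.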
ClpP mod – qHTS Assay for Activators of ClpP | Potency, µM (doses to about 57.5 µM), inactives show at the top dose activity change, negative = active | ATP-dependent Clp protease proteolytic subunit (Bacillus subtilis (strain 168)), P80244 | AID 651965, 2013 | 340,000 compounds, 1.9% hits | purified B. subtilis ClpP, FRET peptide cleavage, 20 min; active = well fitted falling curve with a large enough effect; inconclusive = small, poorly fitted or top-dose-only effect; inactive = no such curve, though single readings can be large or run the other way; note: the source files actives as falling curves though it sought activators and does not explain the sign; nearly all actives have a fitted effect of over 65% in size; many hits overshoot -100%
Target sequence (P80244 whole entry, looked up): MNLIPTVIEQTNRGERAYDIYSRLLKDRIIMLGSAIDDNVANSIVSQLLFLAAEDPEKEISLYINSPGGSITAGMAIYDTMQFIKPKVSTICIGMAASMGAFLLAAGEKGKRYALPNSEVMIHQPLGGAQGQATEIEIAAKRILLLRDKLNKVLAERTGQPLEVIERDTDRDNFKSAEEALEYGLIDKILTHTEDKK
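Buffer: 100 mM Tris/HCl pH8, 100 mM KCl, 0.05% low protease BSA, 2.5% glycerol, 0.01% Tween-20. ClpP 10 microg/mL final; 20 min RT; delta FRET normalized to ADEP and DMSO controls.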
Active calls of the source: *; u = inconclusive. Potency is the fitted concentration of half-maximal effect. These rows are one share of the data. The share of hits here may be higher or lower than overall.

Values run as follows: PINK1 expr mod, ClpP mod
CCN(C(=O)CSc1nc2ccccc2n1CC(=O)N(C)C1CCCCC1)c1ccccc1
 : -0.6%, -2.1%
COCCn1c(SCC(=O)c2c[nH]c3ccccc23)nc2cc(C(=O)NC(C)C)ccc2c1=O
 : -0.3%, u
COc1cccc(N2CC(NC(=O)c3ccc(S(=O)(=O)N4CCCCC4)cc3)CC2=O)c1 (stereo not given)
 : 0.2%, -1.0%
Cc1ccc(C)c(CN2C(=O)C(=O)c3ccccc32)c1
 : 1.6%, 0.5%
COc1ccc(CNC(=O)c2cc3c(-c4ccc(Cl)cc4)nn(C)c3s2)cc1
 : 4.1%, 4.4%
COc1cccc(NS(=O)(=O)c2ccc3[nH]c4c(c3c2)CCCCCC4)c1
 : 7.5%, -2.9%
CCOC(=O)C1CCN(C(c2ccccc2OC)c2c(O)cc(C)n(CCOC)c2=O)CC1 (stereo not given)
 : 0.2%, -2.8%
O=C(NCc1cccc(F)c1)C1CCN(c2nn3cc(-c4ccc(F)cc4)nc3s2)CC1
 : 0.8%, -1.1%
CCOc1ccccc1Nc1sc(C(=O)c2ccccc2)c(N)c1S(=O)(=O)c1ccc(C)cc1
 : 7.7%, -5.6%
COC(=O)c1ccc(Cn2c(SCC(=O)N(C)c3ccccc3)nc3ccccc32)cc1
 : 1.0%, 0.6%
CCCC(=O)Nc1cc(-c2nc3cccnc3s2)ccc1C
 : 2.4%, u
COc1ccccc1Cc1c(-c2ccc(Cl)cc2)nc2c(Cl)cc(C(F)(F)F)cn12
 : 2.8%, -6.2%
CCCC12CN3CC(CCC)(CN(C1)C3c1c(C)[nH]c(=O)[nH]c1=O)C2=O (stereo not given)
 : 0.4%, 0.7%
CCOC(=O)c1cc(-c2ccc(F)cc2)n(CCC(=O)NC2CCCCC2)c1C
 : 0.3%, 5.5%
COc1ccc2c(c1)c1c(c(=O)n(-c3cc(Cl)ccc3C)c(=O)n1Cc1ccc(F)cc1)n2C
 : -0.3%, u
O=C(NCc1ccccc1)c1cnc(N2CCCCC2)c2ccccc12
 : 0.7%, -25%
O=C(NCCCO)C(=O)Nc1c2c(nn1-c1ccc(F)cc1)CSC2
 : 0.3%, -1.9%
CCOC(=O)c1c(C)c(-c2ccccc2)n(CC(=O)Nc2cccc(C)c2C)c1C
 : 1.4%, -0.7%
Cc1ccc(Cl)cc1N1CCN(C(=O)C2CCCN(Cc3nc(-c4cccc(Cl)c4)oc3C)C2)CC1 (stereo not given)
 : u, 1.5%
COc1ccc(S(=O)(=O)Nc2ccc(-c3ccc(N4CCCC4)nn3)cc2)cc1F
 : 8.1%, -3.1%
O=C(CCS(=O)(=O)c1cccc2nonc12)Nc1c(F)cccc1F
 : 1.8%, -0.3%
O=C(NCc1ccco1)c1ccc2c(c1)N(Cc1ccc(Cl)cc1)C(=O)c1ccccc1S2=O (stereo not given)
 : 2.5%, -0.2%
CCOc1ccc(NC(=O)N2CCC(CN3CCc4ccccc4C3)CC2)cc1
 : 1.6%, -1.1%
COc1ccc(S(=O)(=O)Nc2ccc3oc4c(c3c2)C(=O)CC(C)(C)C4)cc1
 : 7.8%, -2.4%
CCCCN1C(=O)C(CC(=O)NCc2ccco2)CC(C(=O)N2CCCCCC2)=C1C (stereo not given)
 : 0.8%, 0.7%
COc1ccc(OC)c(CNC(=O)c2ccc(-c3nc(CSc4ccccc4)c(C)o3)cc2)c1
 : 0.5%, 18µM*
O=C(Nc1cccc(Cl)c1)c1cc(S(=O)(=O)N2CCCc3ccccc32)ccc1F
 : 2.0%, -21%
COc1ccc(-c2cc(-c3nc(-c4cc(OC)c(OC)c(OC)c4)no3)[nH]n2)c(OC)c1
 : -0.7%, -7.2%
Cc1ccc(CNC(=O)Cn2c(=O)ccc3cc(S(=O)(=O)N4CCCC4)ccc32)cc1
 : -5.3%, -16%
COc1ccc(CNC(=O)C2CCN(c3nc4ccccc4[nH]3)CC2)cc1OC
 : -0.2%, 0.9%
COc1cc(Cl)c(C)cc1NC(=O)Cn1cc(S(=O)(=O)N2CCC(C)CC2)c2ccccc2c1=O
 : -0.4%, -5.7%
COc1cc(C)ccc1OCCSc1nc(-c2cccc(C)c2)nc2cc(=O)[nH]n12
 : 0.3%, -17%
CCC(C)NC(=O)CCc1c(C)nc2c(c(C)nn2-c2ccc(C)cc2)c1C (stereo not given)
 : 0.7%, 4.0%
CN(C)c1ccc(CNC(=O)CCCn2ccc3cc(S(=O)(=O)N4CCCC4)ccc32)cc1
 : -1.5%, -5.7%
Cc1ccc(S(=O)(=O)N2CCN(Cc3cc(=O)n4nc(-c5ccccc5Cl)sc4n3)CC2)cc1
 : 0.8%, -3.2%
CCOCCCNC(=O)c1c[nH]c2ccc(S(=O)(=O)N(C)c3ccc(Cl)cc3F)cc2c1=O
 : 11%, 4.1%
COc1cc(-c2nc3n(n2)C(c2ccc(F)cc2)C(C(N)=O)=C(C)N3)cc(OC)c1OC (stereo not given)
 : 3.5%, -2.5%
Cc1ccc(NC(=O)c2sc3nc(-c4cccs4)ccc3c2N)cc1F
 : 11%, 4.4%
CCOC(=O)c1c(S(=O)(=O)N2CCC(C(=O)Nc3cccc(C)n3)CC2)c(C)n(C)c1C
 : -0.8%, -0.4%
Cc1ccc2c(=O)cc(CSc3ccccc3)[nH]c2c1C
 : u, -0.6%
CCn1cc(C(=O)N2CCN(c3cc(Cl)ccc3C)CC2)c2cc(OC)c(OC)cc2c1=O
 : 0.3%, -2.0%
Cc1nc(-c2ccc(S(=O)(=O)NCc3ccc(F)cc3)cc2)co1
 : -3.8%, -2.1%
COc1ccc(OC)c(NC(=O)N(C)CCc2c(C)nn(C)c2C)c1
 : 2.8%, -0.2%
O=C(CN1CCN(Cc2ccc(F)cc2)C1=O)NCc1ccccc1Cl
 : 0.9%, -2.0%
CCOc1ccccc1CNC(=O)C1CCN(Cc2cc3ccccc3n2Cc2ccccc2)CC1
 : 0.1%, -12%
CCc1ccc(-n2c(=O)c3sc4ccccc4c3n(CC(=O)N(CC)Cc3ccccc3)c2=O)cc1
 : 2.8%, -9.8%
Cc1ccc2oc(C(=O)N(Cc3cccc(F)c3)C3CCS(=O)(=O)C3)c(C)c2c1 (stereo not given)
 : -1.3%, -2.6%
COc1cccc(C2CC(=O)N3CN(C4CCCCC4)CSC3=C2C#N)c1 (stereo not given)
 : 1.3%, -3.7%
Cc1ccc(CNC(=O)C(=O)NCC(c2ccco2)S(=O)(=O)c2ccccc2)cc1 (stereo not given)
 : 1.9%, 2.5%
Cc1ccc(CCNc2nc3c(S(=O)(=O)c4ccc(C)cc4)nnn3c3ccsc23)cc1
 : 0.3%, -7.4%
Cc1nc(-c2ccccc2)sc1CCNC(=O)c1ccco1
 : -0.4%, 4.2%
COc1cccc(CN(C(=O)COc2ccc(Cl)c(C)c2)C2CCS(=O)(=O)C2)c1 (stereo not given)
 : 0.5%, 1.0%
CCn1c(=O)c2cc(C(=O)NCCc3ccc(OC)c(OC)c3)sc2c2ccccc21
 : 6.7%, 3.5%
CCCOc1ccc(C(=O)Nc2ccc3oc(-c4ccc5ccccc5c4)nc3c2)cc1
 : 6.1%, -23%
Cc1ccc(C2N=C(Nc3nc4ccccc4o3)NC3=C2C(=O)CC(C)(C)C3)cc1 (stereo not given)
 : -0.1%, 4.3%
COc1ccccc1Cc1c(-c2ccccc2)nc2cc(C)c(Br)c(C)n12
 : 5.1%, -4.0%
COc1ccc(NC(=O)Cn2c(=O)oc3cc(S(=O)(=O)N4CCCCC4C)ccc32)cc1 (stereo not given)
 : 1.0%, 0.3%
Cc1cc(C)n2c(NC3CCCCC3)c(-c3ccccn3)nc2n1
 : 4.4%, -17%
COCCNC(=O)c1ccc2nc(Cc3ccccc3)oc2c1
 : -0.7%, 0.7%
O=C(OCC1CCCO1)c1ccc2c(c1)N(Cc1cccc(Cl)c1)C(=O)c1ccccc1S2(=O)=O (stereo not given)
 : 6.6%, -3.8%

Going on with the list:
Values run as follows: PINK1 expr mod, ClpP mod
Cc1cc(C)c(NC(=O)C(C)n2nc(C)c3sc4ccccc4c3c2=O)c(C)c1 (stereo not given)
 : 0.3%, -5.2%
CCOC(=O)C1CCCN(C(=O)Cn2ncc3c(C)n(Cc4ccccc4F)c(C)c3c2=O)C1 (stereo not given)
 : 3.5%, -23%
CCCOc1ccccc1Cn1c(=O)sc2ccccc21
 : 2.2%, 0.4%
Cc1cc(C)cc(NC(=O)c2cc(S(=O)(=O)N3CCOCC3)cn2C)c1
 : 1.8%, 1.7%
Cc1ccc(-c2nc3scc(CCNS(=O)(=O)c4c(C)noc4C)n3n2)cc1
 : 0.1%, -0.1%
CNC(=O)Cn1cc(S(=O)(=O)Cc2ccccc2F)c2ccccc21
 : 0.0%, -0.3%
COc1ccc(Cl)cc1NC(=O)c1cc(S(=O)(=O)N2CCC(C)CC2)cn1C
 : -0.2%, -0.9%
Cc1oc(C)c2c(=O)cc(-c3ccc4c(c3)OCO4)cc(OC(=O)c3ccc(Cl)cc3)c12
 : 0.1%, -0.3%
CCCCS(=O)(=O)c1oc(-c2ccc(F)cc2)nc1S(=O)(=O)c1ccc(C)cc1
 : -1.2%, -8.6%
Cc1ccc(C)c(N2CCN(C(=O)CSCc3ccccc3Cl)CC2)c1
 : 0.5%, -2.9%
Cc1ccccc1C(=O)n1nc(-c2cccnc2)nc1NCc1ccc(F)cc1
 : 4.9%, -5.9%
Cc1ccsc1CN(C(=O)COc1ccccc1Cl)C1CCS(=O)(=O)C1 (stereo not given)
 : -1.1%, -0.3%
CCOc1cccc2c1Oc1nc(-c3ccccc3)nc(SCC(=O)Nc3ccc(F)cc3)c1C2
 : -0.3%, -8.4%
CCOC(=O)c1c(NC(=O)c2ccccc2OCC)sc2c1CCC(CC)C2 (stereo not given)
 : 2.6%, -21%
COc1ccc(C2CC(=O)c3cc(-c4nc(-c5cccc(Cl)c5)cs4)c(=O)[nH]c3C2)cc1 (stereo not given)
 : 12%, 7.9%

Random excerpt: seven entries already listed.
Values run as follows: PINK1 expr mod, ClpP mod
CCOC(=O)c1c(NC(=O)c2ccccc2OCC)sc2c1CCC(CC)C2 (stereo not given)
 : 2.6%, -21%
CCCOc1ccccc1Cn1c(=O)sc2ccccc21
 : 2.2%, 0.4%
Cc1ccc(-c2nc3scc(CCNS(=O)(=O)c4c(C)noc4C)n3n2)cc1
 : 0.1%, -0.1%
Cc1cc(C)c(NC(=O)C(C)n2nc(C)c3sc4ccccc4c3c2=O)c(C)c1 (stereo not given)
 : 0.3%, -5.2%
CCOc1cccc2c1Oc1nc(-c3ccccc3)nc(SCC(=O)Nc3ccc(F)cc3)c1C2
 : -0.3%, -8.4%
CCCCS(=O)(=O)c1oc(-c2ccc(F)cc2)nc1S(=O)(=O)c1ccc(C)cc1
 : -1.2%, -8.6%
Cc1cc(C)cc(NC(=O)c2cc(S(=O)(=O)N3CCOCC3)cn2C)c1
 : 1.8%, 1.7%

(cont.)
Values run as follows: PINK1 expr mod, ClpP mod
COc1cccc(CNC(=O)CN2C(=O)N(c3cc(C)ccc3C)S(=O)(=O)c3ccccc32)c1OC
 : 1.8%, -1.7%
COCCN1CCc2nc(SCC(=O)Nc3ccc(C)c(Cl)c3)[nH]c(=O)c2C1
 : -1.1%, -2.6%
Cn1c(NCCCCO)nc2c1c(=O)n(Cc1ccc(Cl)cc1)c(=O)n2C
 : 2.7%, -0.9%
O=c1[nH][nH]c2c1C(c1ccc(F)cc1)OC(CCc1ccccc1)C2 (stereo not given)
 : 6.5%, 1.5%
COc1ccc(NC(=O)Cc2csc(C)n2)cc1
 : -0.1%, 0.7%
COc1cc(OC)c(NS(=O)(=O)c2ccc3oc(=O)c4ncn(C)c4c3c2)cc1Cl
 : -0.6%, 1.0%
CC(=O)Nc1c(C)nn(-c2ccccc2)c1N1CCC(C(=O)Nc2ccccc2F)CC1
 : 1.8%, -3.7%
Cc1noc(-c2ccc(-c3noc(-c4ccccc4)n3)cc2)n1
 : 3.8%, -1.1%
CCN(c1cccc(C)c1)c1ncnc2c1cnn2-c1cccc(Cl)c1
 : 1.8%, 4.1%
Cc1cc(C)cc(-n2c(SCC(N)=O)nc3c(oc4ccccc43)c2=O)c1
 : 4.1%, 0.9%
COc1ccc(N2CCN(C(c3ccc(F)cc3)c3sc4nc(-c5ccco5)nn4c3O)CC2)cc1 (stereo not given)
 : 2.0%, -2.6%
Cc1cccc(-n2ncc(C(=O)N3CCOCC3)c2C2CCN(C(=O)OC(C)(C)C)CC2)c1
 : 1.6%, 0.5%
Cc1cc2nc(-c3cccc(Cl)c3)c(CC3CCCCC3)n2c(C)c1Br
 : 10%, -0.8%
Cc1cc(F)ccc1Nc1nc2ccc(Cl)cc2n2cnnc12
 : 0.1%, -0.4%
CCOc1ccccc1CNC(=O)CCCN1C(=O)COc2ccc(C)cc21
 : 1.0%, 0.0%
CC(C)C[C@H]1CN(CCCC[C@@H]2CNC(=O)C(=O)N2Cc2ccccc2)C(=O)C(=O)N1CCc1ccc(O)cc1
 : 1.3%, -0.4%
CC(=O)N1Cc2cc(C(=O)NCC(F)(F)F)nc(-c3cccc(-c4cccnc4)c3)c2[C@@H]1CCO
 : 9.3%, -0.1%
CCc1ccccc1NC(=O)CN1C(=O)COc2ccc(S(=O)(=O)N3CCCCCC3)cc21
 : -0.4%, 0.2%

Screening results deposited in PubChem by National Center for Advancing Translational Sciences (NCATS).
